Choline anaer gr = inhibitors of anaerobic choline-dependent gram-negative bacterial growth; Gram-negative bacterium anaerobic choline minimal medium, absorbance growth; stronger effect = lower value; many inactives read as strong as hits in the columns shown; calls only; 55,000 tested, 0.2% active;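 active = growth z-score on choline under -2 at 7 or 20 h with little or no fall on glycerol, limits in tiers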;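 note: stock transfer was 300 nL into about 50 µL; the organism is E. coli; final concentration not given here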
Choline anaer gr early = also measured in Choline anaer gr; calls as there; z-score; measured here: choline growth z-score, timepoint 1;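 score of optical density at 7 h as mean of two plates; lower means less growth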
* = called active by the depositor; i = inactive.

| Compound | Choline anaer gr | Choline anaer gr early |
| --- | --- | --- |
| COc1ccc(NC(=O)CCc2ccccc2)cc1CN1CCn2c(nc3ccccc32)C1 | i | 0.08 |
| CCNc1cc(C)nc(Nc2ccc(NS(=O)(=O)c3ccccc3)cc2)n1 | i | -0.12 |
| C[C@H](Cc1ccc(O)c(O)c1)[C@@H](C)Cc1ccc(O)c(O)c1 | i | -0.54 |
| CCn1c(CCc2cccc(NS(=O)(=O)c3cccc4nsnc34)c2)nc2ccccc21 | i | 1.84 |
| Cc1oc(-c2ccccc2)nc1CN1CCN(C(=O)Nc2ccc(Cl)cc2)CC1 | i | -0.33 |
| Cc1cccc(NC(=O)C2CCN(S(=O)(=O)c3cc(C(=O)N4CCCC4)n(C)c3)CC2)n1 | i | -0.81 |
| COCCNC(=O)N1c2ccccc2NC2=C(C(=O)CC(C)(C)C2)C1c1ccccc1 (stereo unspecified) | i | -0.43 |
| COc1cccc(-c2noc(CSc3nccn3-c3ccccc3)n2)c1OC | i | -0.53 |
| Cn1nc(-c2nc(C3CC3)no2)c2c1CCN(C(=O)c1ccc(C(F)(F)F)s1)C2 | i | -1.21 |
| CCOc1ccc(OCC)c(NC(=O)CCc2c(C)nn(-c3cc(N4CCCC4)ncn3)c2C)c1 | i | -0.8 |
| COc1ccc(CCC(=O)Nc2cccc(N3CCCS3(=O)=O)c2)cc1 | i | -0.68 |
| O=C(Cn1c2ccccc2c2ncn(Cc3nc(C4CC4)no3)c(=O)c21)Nc1ccc2c(c1)OCCO2 | i | -1.13 |
| Cc1cccc(Nc2c(-c3ccccc3)c(=O)c2=O)c1 | i | 1.13 |
| Cc1cccc(C)c1Nc1c(-c2ccc(Cl)cc2)nc2sccn12 | i | 2.35 |
| CCOC(=O)c1cc(NC(=O)N(C(C)C)C2CCN(C)CC2)c(C)nc1C | i | -0.25 |
| COc1ccc(CNc2nc3nc(CN4CCOCC4)cc(=O)n3[nH]2)cc1OC | i | -0.09 |
| CCCC(=O)Nc1nc2ccc(CCC(=O)Nc3cc(Cl)c(OC)cc3OC)cc2s1 | i | 0.56 |
| CCCCC/C=C\C/C=C\C/C=C\CC1OC1CCCC(=O)O (stereo unspecified) | i | 0.55 |
| CN(C(=O)c1ccc(Nc2ccnc(-c3ccc(F)cc3)n2)cc1)C1CCCCC1 | i | -0.18 |
| COc1ccc(C2CC(=O)N(c3ccc(F)cc3F)C(=O)C2)cc1 | i | 0.18 |
| O=C(NCCN1CCCC1)C1CCN(c2ccc(F)cc2)C1=O (stereo unspecified) | i | -0.07 |
| COc1ccc(Br)cc1CNc1nc(-c2nnc(-c3ccc(C)cc3)o2)nc2ccccc12 | i | -1.34 |
| CCn1c(=O)c(-c2noc(C(=O)N3CCOCC3)n2)nn(-c2ccc(F)cc2)c1=O | i | 0.16 |
| CC(C)NS(=O)(=O)c1ccc2c(c1)CCN2C(=O)CCC(=O)N1CCOCC1 | i | -0.33 |
| CCN1CCN(CCNC(=O)C(C)N2C(=O)CCCc3ccccc32)CC1 (stereo unspecified) | i | -1.06 |
| Cc1ccc(C(=O)NCC(=O)Nc2cc(S(=O)(=O)N3CCCC3)sc2C)cc1 | i | 0.72 |
| CC(=O)N1CCCc2cc(S(=O)(=O)N3CCC(N(C)C(C)C)CC3)ccc21 | i | -0.1 |
| CCOc1c(Nc2cccc(C)c2C)c(=O)c1=O | i | -1 |
| O=C(Nc1nc2ccc(NC(=O)C3CC3)cc2s1)c1ccccc1 | i | 2.36 |
| CCC1Cn2c(C(=O)NCCc3c[nH]c4ccccc34)cc3cccc(c32)O1 (stereo unspecified) | i | 0.81 |
| O=c1c2cnc3ncnn3c2ccn1C1CC1 | i | 0.21 |
| Cc1cc(N2CCCC2)n2nc(C(F)(F)F)c(-c3ccc(Cl)cc3)c2n1 | i | 1.25 |
| Cc1c(CCNC(=O)c2ccc3c(c2)OCO3)sc2nc(-c3ccc(Cl)cc3)nn12 | i | 0.24 |
| COc1ccccc1CNc1nc2ccccc2nc1S(=O)(=O)c1ccc(C)cc1 | i | -0.92 |
| COc1cccc(CCNC(=O)CCCn2c3ccccc3c3cnn(C)c(=O)c32)c1 | i | -0.15 |
| O=C(CSc1nnc2ccc(C(=O)Nc3cccc(F)c3)cn12)Nc1ccccc1F | i | -0.55 |
| Cc1cc(C)nc(SCCn2c(N3CCCC3)nc3c2c(=O)n(C)c(=O)n3C)n1 | i | 0.92 |
| Cc1ccccc1CN1CCCN(CC(=O)NC2CCCC2)S1(=O)=O | i | -1.22 |
| Cc1cc(NCc2cccnc2)n2nc(C(F)(F)F)c(-c3ccc(Cl)cc3)c2n1 | i | 2.49 |
| Cc1cc2nc3sc(C(=O)NCCCN4CCN(c5ccccc5)CC4)cc(=O)n3c2cc1C | i | -0.81 |
| CCOC(=O)c1c(S(=O)(=O)N2CCC(C(=O)Nc3cccc(C)n3)CC2)c(C)n(C)c1C | i | 0.32 |
| COc1ccc(NC(=O)c2nnn(-c3ccc4noc(-c5ccccc5)c4c3)c2C)cc1 | i | 0.46 |
| COc1ccc(-n2nc(C(=O)Nc3cc(C)on3)c(=O)n(C)c2=O)cc1 | i | 0.26 |
| O=C(C1CCN(S(=O)(=O)c2cc(-c3noc(C4CC4)n3)cs2)CC1)N1CCOCC1 | i | -1.09 |
| CCOc1ccc(-c2c(C)[nH]n3c(=O)c(N4CCC(C)CC4)c(C)nc23)cc1OCC | i | 0.8 |
| COc1ccc(Cl)cc1NC(=O)Nc1cc(C)nc2ccccc12 | i | -1.67 |
| C=CCNC(=O)CCc1nc2sc3c(c2c(=O)[nH]1)CCCC3 | i | -0.33 |
| COc1ccc(OC)c(NC(=O)N(C)CCc2c(C)nn(C)c2C)c1 | i | -0.89 |
| CC1=C(C(=O)NCc2cccnc2)C2(CCN(S(C)(=O)=O)CC2)OC1=O | i | 0.26 |
| CN(C)C(=O)c1ccc2c(c1)nc(CN1CCN(C(=O)CCC3CCCC3)CC1)n2C | i | -0.3 |

Looked up by structure from the entries so far, 2 records:
| Compound | Choline anaer gr | Choline anaer gr early |
| --- | --- | --- |
| COc1ccc(Cl)cc1NC(=O)Nc1cc(C)nc2ccccc12 | i | -1.67 |
| Cc1cc2nc3sc(C(=O)NCCCN4CCN(c5ccccc5)CC4)cc(=O)n3c2cc1C | i | -0.81 |

(listing goes on)
Sequence of screens – Choline anaer gr | Choline anaer gr early
Cc1ccc(C2CCCCCN2S(=O)(=O)c2c(C)noc2C)s1 (stereo unspecified)
 : i | 0.31
CCOC(=O)C1CCCN(C(=O)Cn2c(=O)c3ccccc3n3c(=S)sc(-c4ccccc4)c23)C1 (stereo unspecified)
 : i | 0.36
Cc1nc(CCNC(=O)[C@H]2CCCN2S(=O)(=O)c2ccc3c(c2)CCCC3)cs1
 : i | 0.61
CCOc1ccccc1NS(=O)(=O)c1cc(-c2nc(C)c(C)s2)sc1C
 : i | 1.22
COCCC(=O)Nc1cnn(-c2ncc(N3CCSCC3)cn2)c1
 : i | -0.16
O=C(CN1N=C(c2ccccc2F)c2cc(Cl)ccc2S1(=O)=O)Nc1cc(F)ccc1F
 : i | 0.53
CC(=O)Nc1cnc(N2CCN(c3ccccc3)CC2)c(C(=O)O)c1
 : i | 0.06
CN(C)C(=O)c1ccc2c(c1)N(CC(=O)N1CCN(Cc3ccccc3)CC1)C(=O)CS2
 : i | -1.21
C#CCOc1cccc(C2CC(=O)Nc3c2c(C)nn3-c2nncc(-c3ccc(C)cc3)n2)c1 (stereo unspecified)
 : i | -1.37
O=c1[nH]c2cc3c(cc2c(=O)n1Cc1nc(-c2cccc(Br)c2)no1)OCO3
 : i | 0.63
Cc1ccc(C)c(S(=O)(=O)N2CCOc3ccc(COCc4cccc(F)c4)cc3C2)c1
 : i | 1.2
COc1ccc(NC(=O)Cn2c(SCc3ccc(F)cc3)nc3cccnc32)cc1
 : i | 0.95
O=C(NCc1csc(-c2ccccc2)n1)[C@H]1CCCN1C(=O)Nc1cccc(F)c1
 : i | -0.62
O=C1COc2ccc(S(=O)(=O)N3CCCC(C(=O)NC4CCCc5ccccc54)C3)cc2N1 (stereo unspecified)
 : i | -0.12
CCCNC(=O)NC1CCN(c2cc(C)nc3ncnn23)CC1
 : i | 0.96
COC(=O)CN(c1nc2nc(C)c(Cl)c(C)n2n1)S(=O)(=O)c1ccc(Cl)cc1
 : i | 0.83
CN(C)CCNC(=O)c1ncoc1-c1ccccc1C(=O)N1CCCC1
 : i | 1.12
Cc1cc(-c2cc(S(=O)(=O)N3CCOCC3)c(C)o2)n[nH]1
 : i | 0.18
CN1c2cc(Cl)ccc2-c2nc(SCC(N)=O)ncc2S1(=O)=O
 : i | 0.68
CCn1cnc(S(=O)(=O)N2CCC(C(=O)N3CCOCC3)CC2)c1
 : i | -1.05
Cn1ccc2cc(S(=O)(=O)N3CCC(C(=O)NCc4ccccn4)CC3)ccc21
 : i | 0.24
CCC(C(=O)Nc1cc(OC)ccc1OC)n1nc(-c2ccccc2)c2c(c1=O)CCCC2 (stereo unspecified)
 : i | 0.06
Cc1ccc2[nH]c(=O)c(-c3noc(CCC(=O)NC(C)C)n3)cc2c1
 : i | -0.45
CC1=C(C(=O)OC2CCCC2)C(c2c(F)cccc2Cl)CC(=O)N1 (stereo unspecified)
 : i | 0.12
CCN(CC)c1ccc(NC(=O)Cn2nc3c4sccc4ncn3c2=O)c(C)c1
 : i | -0.9
Cc1ccc(/C=C/c2onc(C)c2S(=O)(=O)N2CCCC(C(=O)N3CCCC3)C2)cc1 (stereo unspecified)
 : i | -0.2
Cc1ccc(S(=O)(=O)c2ccc(C(=O)N3CCN(c4ccccn4)CC3)cn2)cc1C
 : i | -1.1
Cn1c(=O)oc2cc(S(=O)(=O)NCc3cccn3Cc3ccccc3)ccc21
 : i | 0.6
COc1cc(Cl)c(NS(=O)(=O)c2cc(-c3cc(C(F)(F)F)[nH]n3)sc2C)c(OC)c1
 : i | 0.05
Cc1csc(-c2cc(S(=O)(=O)N3CCN(CC(C)C)CC3)cn2CC(=O)N2CCCCC2)n1
 : i | -0.18
COC(=O)c1c(NC(=O)c2ccc(S(=O)(=O)N3CCC(C)CC3)cc2)sc2c1CCN(C)C2
 : i | -0.04
CCOc1ccccc1C1CC(=O)Nc2n[nH]c(C)c21 (stereo unspecified)
 : i | -1.02
O=c1ccc(-c2ccc3c(c2)OCO3)nn1CCc1nc(-c2ccncc2)no1
 : i | 1.05
COc1cccc(CNC(=O)c2ccc3cn[nH]c3c2)c1
 : i | -1.02
NC(CCCP(=O)(O)O)C(=O)O (stereo unspecified)
 : i | 0.51
Clc1ccc(-c2cc3c(N4CCN(C5CCCCC5)CC4)nccn3n2)cc1
 : i | -0.56
CCOc1cc(C2Nc3ccc(Cl)cc3[C@H]3OCCC[C@@H]23)ccc1OC (stereo partly specified)
 : i | 1.95
CC1CC(=O)c2cn3ncnc3nc2C1 (stereo unspecified)
 : i | -1.34
CC(C)NC(=O)Cn1cnc2nc(N3CCC(C(=O)NC4CC4)CC3)sc2c1=O
 : i | 0.68
CCCCNC(=O)c1cc2c(C)nn(-c3ccc(F)cc3)c2s1
 : i | 0.04
O=S(=O)(c1ccc(F)cc1)N1CCOc2ccccc21
 : i | -0.72
CC(C)CC(=O)Nc1ccc(S(=O)(=O)N2CCCC2c2nc(-c3ccccc3)no2)cc1 (stereo unspecified)
 : i | 0.41
Cc1cc2c(cc1S(=O)(=O)N1CCCC(C(=O)N(C)C3CCCCC3)C1)OCC(=O)N2 (stereo unspecified)
 : i | -0.51
CCn1c(=O)c(C)nc2cc(C(=O)NCCc3c[nH]c4ccc(Cl)cc34)ccc21
 : i | -0.73
COc1ccc(-n2ncc3c(SCC(=O)Nc4nc(C(C)(C)C)cs4)ncnc32)cc1
 : i | 1.03

Nothing new here: entries from further up.
Sequence of screens – Choline anaer gr | Choline anaer gr early
COc1cccc(CNC(=O)c2ccc3cn[nH]c3c2)c1
 : i | -1.02
NC(CCCP(=O)(O)O)C(=O)O (stereo unspecified)
 : i | 0.51
Clc1ccc(-c2cc3c(N4CCN(C5CCCCC5)CC4)nccn3n2)cc1
 : i | -0.56
CCOc1cc(C2Nc3ccc(Cl)cc3[C@H]3OCCC[C@@H]23)ccc1OC (stereo partly specified)
 : i | 1.95
CC1CC(=O)c2cn3ncnc3nc2C1 (stereo unspecified)
 : i | -1.34

New compounds follow
Sequence of screens – Choline anaer gr | Choline anaer gr early
Cn1nc(-c2ccccc2F)c2cc(C(=O)Oc3ccc(F)cc3)sc21
 : i | -0.28
CC(C)C(=O)N1CCC2(CC1)NC(=O)c1ccccc1O2
 : i | 0.35
Cc1ccc(C(=O)c2cn(CC(=O)Nc3ccccc3)c3ccccc3c2=O)cc1
 : i | 1.05
CCCn1c(=O)c(N2CCC(NC(=O)NCC3CCC(C(=O)OCC)CC3)CC2)nc2ccccc21 (stereo unspecified)
 : i | 0.24
O=C(Nc1ccccn1)C1CCCN(c2ncnc3onc(-c4ccc(F)cc4)c23)C1 (stereo unspecified)
 : i | 1.02
COc1ccc(-c2csc(-c3nc(-c4ccc(OC)c(F)c4)cs3)n2)cc1F
 : i | 1.19
COc1ccc2[nH]c(C(=O)NCc3cccc(OC)c3OC)c(N3CCCC3=O)c2c1
 : i | -1.35
CCOc1ccc2c(c1)cc(C(=O)N1CCCCC1)n2C
 : i | -1.04
Cc1nn(CC(=O)NC(C)(C)C)c(C)c1S(=O)(=O)N1CCC(C(=O)N2CCC(C)CC2)CC1
 : i | -0.2
Cn1c(=O)c(-c2noc(CCC(=O)NC3CCCC3)n2)nn(-c2ccccc2)c1=O
 : i | 0.85
CC(C)NC(=O)CN1c2ccc(Br)cc2-c2ccccc2S1(=O)=O
 : i | 0.58
O=C(Cn1c(=O)n(Cc2ccc(Cl)cc2)c(=O)c2nccnc21)Nc1cccc(Cl)c1
 : i | 0.32
COc1ccc(-n2ccc(=O)c(-c3nc(-c4ccc(OC(C)C)cc4)no3)n2)cc1
 : i | 1.46
Cc1ccc(C)c(NC(=O)c2[nH]c(C)c(S(=O)(=O)N3CCCC3)c2C)c1
 : i | 0.04
CCN1CCCC1CNC(=O)c1nc(-c2ccc(S(=O)(=O)N(C)C)cc2)no1 (stereo unspecified)
 : i | 0.41

This is a subset; count on the stated rates, not on these rows.
